D2 PAM: positive allosteric modulators of human D2 dopamine receptor; potentiation, % (test concentration not listed); 0.23% of 360,000 active; P14416; DiscoveRx D2 beta-arrestin cells, luminescence, 90 min; 100% = 57 uM dopamine signal; active = potentiation of 50% or more; inconclusive = 30% to 50%; inactive = 30% or less;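 further: compound concentration not given in the record; tested on top of an EC20 dose of dopamine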
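D2 cells co-treated with compound plus 50 nM dopamine (EC20) for 90 min at 37 deg C to detect potentiation. Beta-arrestin recruitment was read as enzyme-fragment luminescence after 1 h at ambient temperature. Full response was set by 57 uM dopamine.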
TRPML1 ag: activates the human TRPML1 channel; Q9GZU1; TRPML1-expressing cells, Ca2+ dye fluorescence, FDSS; host cell line not named in the record; reference of the full effect not given here; activation, % (test concentration not listed); 0.12% of 410,000 active; AID 624414; in the data active = activation above about 50%; inconclusive = about 30% to 50%; inactive = below about 30%; further: 0% is about no effect; the text of the record puts the active cut at 80%
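Kinetic FDSS Ca2+ read in Tet-induced TRPML1-DL cells (ABD Ca8 dye plus quencher, 45-90 min RT loading): baseline, then compound, then 110 s agonist window; EC80 agonist 54-4 at 4uM final added afterwards for a 110 s antagonist window.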
TRPML1 inh: human mucolipin-1 channel inhibition; Q9GZU1; TRPML1-inducible cells, Ca2+ dye fluorescence, FDSS; active compounds read low; inhibition of EC80 agonist-evoked calcium signal; activity change, negative = inhibition, % (test concentration not listed); 0.02% of 390,000 active; AID 624415; in the data active means activity change below about -50%; inconclusive means about -30% to -50%; inactive means above about -30%;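 further: stimulus is agonist 54-4 at its EC80 concentration; on the % scale 0 is the no-effect control and ±100 the full control effect; compound concentration not given in the record; the text of the record puts the active cut at -80%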
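TRPML1-DL cells, Tet-induced overnight (~16 h, 37 °C) at 1,500 cells/well, were loaded with Ca8 no-wash dye plus quencher for 45-90 min at room temperature. Compounds were pinned during FDSS kinetic reading; agonist 54-4 at EC80 (4 uM final) then added.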
TRPV1 PAM: human TRPV1 potentiation. TRPV1-expressing cells, Fluo-8 calcium influx, capsaicin EC20 potentiation; host cell line not named in the record; control for the full effect not named in the record. potentiation, % at 8.33 µM. 0.02% of 320,000 active. AID 540277; active means potentiation above 80%; inconclusive means 30% to 80%; inactive means below 30%; further: 0% is about no effect
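TRPV1-expressing cells were cultured overnight at 35.5C and loaded with Fluo-8 calcium dye for 40 to 90 min at room temperature. After a 10 s baseline, compound was added and calcium influx was read kinetically for 3 min (ex 480/em 520 nm).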
Six1-Eya2 blk: blocks human Six1 binding to Eya2. AlphaScreen GST-Six1/His-Eya2 binding, biochemical; active compounds read low; control for the full effect not named in the record. 0.56% of 360,000 active. activity change, % (no concentration beside the values); in the data active = activity change below about -65%; inconclusive = about -30% to -65%; inactive = above about -30%; further: on the % scale 0 is the no-effect control and ±100 the full control effect
Target sequence (O00167 whole entry, looked up): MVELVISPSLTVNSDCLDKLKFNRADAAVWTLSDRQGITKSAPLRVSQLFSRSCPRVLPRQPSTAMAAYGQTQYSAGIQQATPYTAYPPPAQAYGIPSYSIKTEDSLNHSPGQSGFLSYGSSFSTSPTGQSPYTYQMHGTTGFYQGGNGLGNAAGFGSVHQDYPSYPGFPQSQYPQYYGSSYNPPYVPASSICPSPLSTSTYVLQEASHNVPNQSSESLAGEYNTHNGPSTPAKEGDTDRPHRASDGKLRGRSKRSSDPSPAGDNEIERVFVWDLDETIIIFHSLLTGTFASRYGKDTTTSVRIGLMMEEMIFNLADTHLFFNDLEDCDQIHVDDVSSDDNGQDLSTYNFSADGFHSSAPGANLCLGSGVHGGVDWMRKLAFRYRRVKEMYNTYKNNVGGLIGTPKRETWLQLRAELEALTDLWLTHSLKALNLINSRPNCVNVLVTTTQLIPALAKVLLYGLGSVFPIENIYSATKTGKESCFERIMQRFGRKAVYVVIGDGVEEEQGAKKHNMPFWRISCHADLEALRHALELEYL
Target sequence (Q15475 whole entry, looked up): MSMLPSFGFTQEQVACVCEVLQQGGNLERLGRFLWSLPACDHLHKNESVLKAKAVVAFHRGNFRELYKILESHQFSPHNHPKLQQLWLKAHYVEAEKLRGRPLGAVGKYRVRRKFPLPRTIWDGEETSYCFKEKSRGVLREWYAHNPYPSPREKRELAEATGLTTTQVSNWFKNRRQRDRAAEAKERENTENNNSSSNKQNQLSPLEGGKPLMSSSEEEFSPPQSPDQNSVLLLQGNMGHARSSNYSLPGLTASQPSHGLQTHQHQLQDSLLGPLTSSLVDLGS
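AlphaScreen with GST-Six1 and His-Eya2 (5X mix: 250 nM and 500 nM), glutathione donor and nickel acceptor beads; buffer 50 mM Tris pH 8.0, 300 mM NaCl, 1 mM TCEP; 1 h at 37 C in the dark.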
CtBP-E1A blk: CtBP/E1A binding inhibition. AlphaScreen GST-E1A/His-CtBP binding, 1536-well; active compounds read low; control for the full effect not named in the record. activity change, % (no concentration beside the values). 0.49% of 340,000 active; in the data active means activity change below about -65%; inconclusive means about -30% to -65%; inactive means above about -30%; further: on the % scale 0 is the no-effect control and ±100 the full control effect
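GST-E1A and His-tagged CtBP (125 nM each as 5X stock) were preincubated with pin-transferred compound for 2 h at 37 °C in the dark, then glutathione donor and nickel acceptor beads were added for 1 h before AlphaScreen reading.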
* hit, by the source's call; ? = inconclusive; nt = not tested or not shown. Not a hit list; overall some 0.95% were active at least once.

1. CCOc1ccc(NS(=O)(=O)c2ccc3c(c2)n(C)c(=O)n3C)cc1
2. COc1ccc(COCC(O)CN2CCC(C(N)=O)CC2)cc1 (stereo not given)
3. CCCCC(=O)NC(c1ccc(OC)c(OC)c1)c1c(O)ccc2ccccc12 (stereo not given)
4. CCOC(=O)c1c(C)cccc1OCC(N)=O
5. Cc1cc(/C=N/NC(N)=O)c(C)n1-c1ccc(F)cc1
6. CC1(C)Cc2cccc(OCC(=O)N3CCN(S(=O)(=O)c4ccccc4F)CC3)c2O1
7. CC(=O)Nc1ccc(S(=O)(=O)N2CCN(C(=O)c3ncoc3-c3cccc(C)c3)CC2)cc1
8. Cc1cccc(C)c1NC(=O)COC(=O)c1cc(=O)c2ccccc2o1
9. CC(=O)N1CCC(=NNc2ccc(S(=O)(=O)N3CCOCC3)cc2[N+](=O)[O-])CC1
10. Cn1c(=O)oc2cc(S(=O)(=O)Nc3cccc4c3CCCC4)ccc21

Screen / compound no. | 1 | 2 | 3 | 4 | 5 | 6 | 7 | 8 | 9 | 10
D2 PAM | -2 | -5 | -13 | -18 | -5 | -34 | -26 | -9 | 18 | 5
TRPML1 ag | 0.1 | -0.6 | 0.5 | 0.2 | -0.3 | 3.2 | 0.1 | nt | 0.0 | 0.6
TRPML1 inh | -11 | 10 | 2 | 2 | 0 | -4 | 21 | nt | -14 | 19
TRPV1 PAM | -23 | 3 | ? | 27 | 15 | 13 | 6 | 8 | -15 | ?
Six1-Eya2 blk | 0 | 0 | -6 | -4 | 0 | -7 | -6 | 8 | 2 | -2
CtBP-E1A blk | nt | nt | -13 | -11 | -3 | -5 | -13 | -11 | -10 | 5

Profiles from above. Screens in order: D2 PAM | TRPML1 ag | TRPML1 inh | TRPV1 PAM | Six1-Eya2 blk | CtBP-E1A blk
Cc1cc(/C=N/NC(N)=O)c(C)n1-c1ccc(F)cc1 across the screens: -5 | -0.3 | 0 | 15 | 0 | -3
COc1ccc(COCC(O)CN2CCC(C(N)=O)CC2)cc1 (stereo not given) across the screens: -5 | -0.6 | 10 | 3 | 0 | nt
CCOc1ccc(NS(=O)(=O)c2ccc3c(c2)n(C)c(=O)n3C)cc1 across the screens: -2 | 0.1 | -11 | -23 | 0 | nt
CC1(C)Cc2cccc(OCC(=O)N3CCN(S(=O)(=O)c4ccccc4F)CC3)c2O1 across the screens: -34 | 3.2 | -4 | 13 | -7 | -5

Next part.
11. CCOC(=O)c1sc(NC(=O)CSc2nc(-c3ccco3)cc(C(F)(F)F)n2)c(C(=O)OC)c1C
12. Cc1ccc(C)c(N2CCN(CCCNC(=O)Cn3cc4c(n3)CCC(C)C4)CC2)c1 (stereo not given)
13. O=C(c1ccco1)N1CCN(c2nc(C3CC3)nc3c2nnn3Cc2ccccc2Cl)CC1
14. C=CCc1ccc(OCCOCCOc2cccc3cccnc23)c(OC)c1
15. C=CCNC(=O)/C(C#N)=C/c1cn(-c2ccccc2)nc1-c1ccc(OC)c([N+](=O)[O-])c1
16. Cc1cc(C)n2c(SCc3ccc(Cl)cc3Cl)nnc2n1
17. CCN(CC)CCNC(=O)C1CCC(=O)N(c2ccc(OC)cc2)C1c1ccc(F)cc1 (stereo not given)
18. O=C(N/N=C/c1ccc[nH]1)c1ccc(O)cc1
19. CC(C)=CCN1CCN(Cc2cnc(N3CCOCC3)s2)CC1CCO (stereo not given)
20. CCN=C1SC(CC(=O)NCCc2ccc(OC)cc2)C(=O)N1CC (stereo not given)

Screen / compound no. | 11 | 12 | 13 | 14 | 15 | 16 | 17 | 18 | 19 | 20
D2 PAM | -14 | -10 | 2 | -13 | 3 | -23 | -37 | -3 | -5 | -2
TRPML1 ag | -0.4 | 0.5 | 3.0 | 2.2 | 0.3 | 2.4 | 3.6 | 2.3 | -0.4 | -0.3
TRPML1 inh | 7 | -9 | -1 | -3 | 2 | 9 | 19 | 8 | ? | -9
TRPV1 PAM | 0 | 25 | 1 | -2 | -5 | -1 | 9 | -11 | 3 | 13
Six1-Eya2 blk | 1 | -1 | -18 | -9 | -1 | 23 | 2 | -14 | 3 | 4
CtBP-E1A blk | 8 | 0 | -27 | -6 | -6 | 0 | -8 | -3 | -20 | -8

21. O=C(Nc1ccc(F)c(F)c1)c1cc(S(=O)(=O)N2CCN(c3ccccn3)CC2)ccc1F
22. O=C(Nc1ccc2[nH]c(=S)sc2c1)c1ccccc1
23. CC(C)C[C@H](NC(=O)c1nc[nH]c1C(=O)NCc1ccc(CNC(=O)OC(C)(C)C)cc1)C(=O)OCc1ccccc1
24. CCOC(=O)/C(C#N)=C/c1ccc(OC(=O)c2ccccn2)cc1
25. COc1cc(CNc2ccc(N3CCCCC3)cc2)ccc1OCC(=O)NC(C)(C)C
26. Cc1ccc(OCC(=O)Nc2ccc3c(c2)CCC3)c([N+](=O)[O-])n1
27. Nc1ccccc1N=Cc1ccc(-c2cccc(Cl)c2)o1
28. CCN(CC)c1ccc(/C=C(/C#N)C(=O)NC(C)C)o1
29. COc1cccc(OCc2nnc3n2N=C(c2ccccc2)C(CC(=O)O)S3)c1 (stereo not given)
30. COc1cccc(CNC(=O)CCNC(=O)C2CCN(S(=O)(=O)c3ccccc3)CC2)c1

Screen / compound no. | 21 | 22 | 23 | 24 | 25 | 26 | 27 | 28 | 29 | 30
D2 PAM | -17 | -22 | -3 | -3 | -5 | -3 | 0 | -9 | -2 | -3
TRPML1 ag | 1.0 | 2.3 | 1.0 | 1.2 | 0.2 | 0.3 | 0.1 | ? | -1.0 | 1.8
TRPML1 inh | 3 | 6 | -9 | -6 | -4 | 11 | -12 | 15 | -18 | 7
TRPV1 PAM | 0 | -12 | 28 | -10 | 2 | -11 | 1 | -8 | 0 | -5
Six1-Eya2 blk | -6 | -2 | -6 | -87* | ? | -7 | 15 | 9 | 1 | -7
CtBP-E1A blk | -3 | -8 | -1 | -3 | ? | 0 | 4 | -2 | 9 | nt

31. CNCCC=C1c2ccccc2C=Cc2ccccc21
32. CC(C)CN(C(=O)COC(=O)COc1ccc2c(c1)CCC2)c1c(N)n(Cc2ccccc2)c(=O)[nH]c1=O
33. CC(C)(O)C#Cc1ccc(CN2CCC(CO)(CCc3ccccc3)CC2)cc1
34. CC1(CCBr)C(=O)N(c2ccccc2)c2ccccc21 (stereo not given)
35. Cc1cccc(NC(=O)CSc2nc3ccccc3c(=O)n2CC2CCCO2)c1 (stereo not given)
36. CC(=O)N(C)c1ccc(NC(=O)/C=C/c2ccccc2Cl)cc1
37. Cc1ccc(C(=O)OCC(=O)Nc2ccccc2)cc1NC(=O)c1ccco1
38. CC(C)(C)N1C(=O)c2ccc(C(=O)Nc3ccc(-c4nc5ccccc5[nH]4)cc3)cc2C1=O
39. COc1cc(C(=O)OCC(=O)N2c3ccccc3NC(=O)C2(C)C)ccc1OCC(C)C
40. O=C1/C(=C/N(C(=O)c2ccco2)c2ccc(Cl)cc2)Sc2ccccc21

Screen / compound no. | 31 | 32 | 33 | 34 | 35 | 36 | 37 | 38 | 39 | 40
D2 PAM | -34 | -8 | -6 | -1 | 5 | -25 | 2 | -4 | 16 | -21
TRPML1 ag | 0.0 | 1.4 | 1.1 | 1.7 | -1.9 | -0.3 | 6.0 | -0.1 | 0.9 | 2.1
TRPML1 inh | 15 | 14 | -5 | 43 | -1 | -25 | 3 | -12 | -16 | 10
TRPV1 PAM | nt | 4 | -5 | -7 | nt | 3 | 2 | -3 | -9 | -20
Six1-Eya2 blk | 2 | 5 | 0 | 0 | -5 | -4 | 7 | 3 | -5 | 1
CtBP-E1A blk | -3 | 6 | -9 | 16 | nt | 0 | -4 | -5 | -4 | -8

41. COc1ccc(-c2noc(CN(C(=O)c3ccoc3C)C(C)C)n2)cc1
42. Cc1ccc(NS(=O)(=O)c2cccc(C(=O)NCCCn3ccnc3)c2)cc1
43. O=C1C2CCCCC2C(=O)N1c1nccs1 (stereo not given)
44. O=S(=O)(c1ccc(N2CCCC2c2nc3ccccc3s2)nc1)N1CCOCC1 (stereo not given)
45. Cc1ncc([N+](=O)[O-])n1CC(=O)Nc1ccc(F)c(F)c1
46. Cc1[nH]c2ccccc2c1Cc1n[nH]c(=S)o1
47. OC(c1ccccc1)(c1nc(/C=C/c2ccc(C(F)(F)F)cc2)cs1)C(F)(F)F (stereo not given)
48. COC(=O)COc1ccc(S(=O)(=O)Nc2ccc3c(c2)OCO3)cc1Cl
49. COc1ccc(CCNC(=O)COC(=O)c2ccccn2)cc1
50. Cc1ccc(S(=O)(=O)N/N=C2/CC(c3ccccc3)Oc3ccccc32)cc1[N+](=O)[O-] (stereo not given)

Screen / compound no. | 41 | 42 | 43 | 44 | 45 | 46 | 47 | 48 | 49 | 50
D2 PAM | 2 | -12 | -7 | -5 | -7 | -8 | -5 | -2 | -6 | -9
TRPML1 ag | 0.8 | 0.6 | 0.3 | -0.9 | -0.1 | -0.3 | 3.1 | 1.0 | 0.2 | 0.5
TRPML1 inh | 5 | -3 | 1 | 2 | 6 | 5 | nt | -5 | -17 | -12
TRPV1 PAM | -7 | 11 | -5 | -7 | -6 | ? | nt | 3 | nt | -10
Six1-Eya2 blk | -4 | 2 | 3 | -6 | 5 | -10 | 11 | -2 | 6 | -2
CtBP-E1A blk | -1 | 2 | 4 | -6 | -2 | 2 | 13 | 7 | 24 | 0

51. O=C(CCn1nc(-c2ccc(Cl)cc2)c2ccccc2c1=O)NCC1CCCO1 (stereo not given)
52. COc1ccc2c(c1OC)C(=O)N1C2SC[C@H]1C(=O)NC1CCCCC1 (stereo not given in full)
53. C/C(=N/NC(=O)c1cc(C)[nH]n1)c1ccco1
54. O=C(Nc1c(-c2ccc3c(c2)OCO3)[nH][nH]c1=O)c1ccc2c(c1)OCO2
55. COc1ccc(C)cc1NC(=O)CCCN1C(=O)NC(C)(C)C1=O
56. O=c1cc(CNc2ccc(Br)cc2)nc2sccn12
57. CC(C)Nc1nc(Nc2ccc(C#N)cc2)c2sccc2n1
58. COc1ccccc1-n1c(SCC(=O)Nc2nnc(C)s2)nc2c(c1=O)SCC2
59. Cc1c(NC(=O)c2cccs2)cccc1NC(=O)c1cccs1
60. COC(=O)CCC(=O)Nc1nccs1
61. COC(=O)c1ccc2nc(-c3ccc(Cl)cc3)c(Cc3cccc(Cl)c3)n2c1
62. O=C(Nc1sc(-c2ccccc2)cc1C(=O)O)c1ccccc1

Screen / compound no. | 51 | 52 | 53 | 54 | 55 | 56 | 57 | 58 | 59 | 60 | 61 | 62
D2 PAM | 0 | -22 | -10 | -15 | -2 | 15 | -7 | 0 | -14 | -1 | nt | -18
TRPML1 ag | -0.4 | nt | -0.4 | 0.1 | 0.1 | -0.4 | -0.8 | 0.2 | 0.2 | 0.8 | -0.2 | nt
TRPML1 inh | 31 | nt | 18 | nt | 21 | -20 | nt | 26 | 8 | 10 | nt | nt
TRPV1 PAM | 11 | 9 | -5 | nt | 27 | -11 | nt | -27 | -2 | 0 | nt | -5
Six1-Eya2 blk | -1 | 1 | -15 | -1 | 9 | 4 | ? | -9 | 5 | 0 | 1 | 2
CtBP-E1A blk | -1 | 2 | -27 | 7 | 1 | 5 | -23 | -10 | -11 | 0 | 0 | -6

High-throughput results (PubChem BioAssay)
